Assay outcomes (PubChem BioAssay)
MbtI inh = MbtI salicylate synthase inhibition; P9WFX0; purified MbtI enzyme, fluorescence intensity read-out; inhibition, %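 (about 17 µg/mL by stock and volumes)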; 100,000 compounds, 0.89% hits; AID 493033;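 active means above 50% in both replicates, above 80% if mildly self-fluorescent; inactive means the rest, strongly fluorescent compounds included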;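 further: 0% = mean of negative and 100% = mean of positive controls; one replicate is shown; some compounds called inactive have numbers as strong as hits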
Mtb MenB inh = inhibitors of Mycobacterium tuberculosis MenB enzyme. AID 540299. inhibition, %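 (about 12 µg/mL by stock and volumes)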. MenB enzyme assay, absorbance read-out; some hits fall short of the stated cut. 100,000 compounds, 0.43% hits. P9WNP5;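 active means mean of two replicates above 30%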;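 further: 0% = no compound and 100% = wells with inactive enzyme; the first replicate is given; strong numbers were not always called active; inactives centre near -10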
Target sequence (P9WNP5 whole entry, looked up): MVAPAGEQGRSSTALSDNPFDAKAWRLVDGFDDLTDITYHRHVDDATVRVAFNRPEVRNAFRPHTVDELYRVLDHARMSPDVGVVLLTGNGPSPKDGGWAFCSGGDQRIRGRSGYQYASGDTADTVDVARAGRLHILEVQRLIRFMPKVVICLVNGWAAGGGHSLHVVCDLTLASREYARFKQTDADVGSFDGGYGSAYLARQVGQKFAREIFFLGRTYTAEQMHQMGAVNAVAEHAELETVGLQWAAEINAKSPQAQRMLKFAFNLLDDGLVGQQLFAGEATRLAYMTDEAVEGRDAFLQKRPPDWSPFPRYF
Polio RdRp inh = inhibitors of poliovirus RNA polymerase binding and polymerization; AID 588519; 150,000 compounds, 0.66% hits; % elongation, % (compound at 16.7 µg/mL); poliovirus polymerase elongation, fluorescence polarization; active compounds read low; in the data active means % elongation below about 90%; further: some results filed as inactive read as strong as hits
Target sequence (P03300 1749-2209 limits assumed): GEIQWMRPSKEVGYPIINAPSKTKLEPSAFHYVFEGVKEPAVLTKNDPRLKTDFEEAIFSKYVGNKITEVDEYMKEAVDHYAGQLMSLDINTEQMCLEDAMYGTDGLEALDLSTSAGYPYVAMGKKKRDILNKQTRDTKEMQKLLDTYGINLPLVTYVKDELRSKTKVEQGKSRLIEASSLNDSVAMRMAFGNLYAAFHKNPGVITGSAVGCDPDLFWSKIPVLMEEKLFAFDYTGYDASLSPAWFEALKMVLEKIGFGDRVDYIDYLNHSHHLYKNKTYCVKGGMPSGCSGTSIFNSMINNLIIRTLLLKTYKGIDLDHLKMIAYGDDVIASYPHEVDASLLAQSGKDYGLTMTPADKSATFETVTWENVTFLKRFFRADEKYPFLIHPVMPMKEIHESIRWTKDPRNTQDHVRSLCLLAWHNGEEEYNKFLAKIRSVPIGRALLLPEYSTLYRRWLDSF
Polio RdRp inh intensity = also measured in Polio RdRp inh; calls as there; % elongation; measured here: total intensity read-out; formula for this scale not given here;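 total fluorescence in place of polarization; lower means less elongation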
* marks the source's active call; other numbers are inactive results; · = not tested or not shown; & = joins results of further samples.

1. CC1CCC(C(=O)NC(C(=O)Nc2ccc(F)c(Cl)c2)C(C)C)CC1 (configuration not stated)
2. CC(C)c1ccc2oc3nc(N)c(C#N)cc3c(=O)c2c1
3. CN(C)C(=O)COc1cccc2ccccc12
4. CC(C)N(CC(N)=O)Cc1cccc2ccccc12
5. CN1CCC(=C2c3ccccc3C=Cc3ccccc32)CC1
6. CN(C(=O)c1cc(-c2cccs2)nc2ccccc12)c1ccccc1
7. NC(=O)c1cc(-c2csc(=NC3CC3)n2/N=C/c2ccccn2)ccc1O
8. O=C(/C=C/c1ccco1)NC(c1ccccc1)c1ccccc1

compound no.	1	2	3	4	5	6	7	8
MbtI inh	2	0	30	8	-1	-9	16	12
Mtb MenB inh	6	-2	-2	-8	3	·	-94	-9
Polio RdRp inh	101	103	102	110	99	102	106	102
Polio RdRp inh intensity	98	106	97	122	103	107	104	101

9. CCCS(=O)(=O)N1CCCC1C(=O)O (configuration not stated)
10. Cc1cc(C(=O)Nc2nccs2)c(C)s1
11. O=C(O)c1ccc(C(=O)c2ccc3c(c2)C(=O)N(CC2CCCO2)C3=O)cc1 (configuration not stated)
12. CC1Cc2ccccc2N1C(=O)COC(=O)c1ccc(Cl)cc1 (configuration not stated)
13. CCS(=O)(=O)NC1CCN(Cc2ccccc2)CC1
14. CCN1C(=O)c2ccc(C(=O)Nc3cc(C)on3)cc2C1=O
15. N#Cc1ccc(CN2CCCc3ccccc32)cc1
16. N#CC(C(=O)CN1CCN(Cc2ccccc2)CC1)c1ccccc1 (configuration not stated)

compound no.	9	10	11	12	13	14	15	16
MbtI inh	1	2	-230	-10	-7	-14	9	-15
Mtb MenB inh	-17	-19	-22	-7	4	-26	-11	-5
Polio RdRp inh	105	105	100	102	104	100	99	103
Polio RdRp inh intensity	110	110	98	111	109	101	101	103

17. CCOC(=O)c1nc2ccccc2n(C(C)=O)c1=O
18. COc1ccc(/C=C2\SC(N(C)c3ccc(Cl)cc3)=NC2=O)c(OC)c1OC
19. CN(C)C(=O)Oc1cc(OC(=O)N(C)C)cc(C(O)CNC(C)(C)C)c1 (configuration not stated)
20. COc1ccccc1Nc1nc2c(s1)CCCC2
21. NC(N)=NS(=O)(=O)c1ccc(NC(=S)NC(=O)/C=C/c2ccc(F)cc2)cc1
22. CN(C(=O)CSc1nnc(-c2ccccc2)n1-c1ccccc1)C1CCS(=O)(=O)C1 (configuration not stated)
23. COc1cccc(-c2nc(CS(=O)CC(=O)O)c(C)o2)c1 (configuration not stated)
24. COc1ccc(CN=C(N)N)cc1

compound no.	17	18	19	20	21	22	23	24
MbtI inh	22	-157	-14	·	·	67	14	-8
Mtb MenB inh	-73	-35	2	-6	-18	1	-25	-14
Polio RdRp inh	101	102	100	100	102	108	102	101
Polio RdRp inh intensity	101	104	98	94	106	112	97	100

25. C(=N\N1CCCCC1)/c1cn(-c2ccccc2)nc1-c1cccs1
26. Nc1ccccc1-c1nnc(-c2ccccc2)c(=O)[nH]1
27. Cn1ccnc1SCC(=O)c1ccccc1
28. C/C(=C/C(=O)c1c(O)c2ccccc2n(C)c1=O)Nc1ccc(N)cc1
29. CC(=O)O/N=C/c1[nH]ncc1Br
30. COc1ccc(S(=O)(=O)N2CCCC(C(=O)N3CCN(C)CC3)C2)cc1OC (configuration not stated)
31. CC[N+](CC)(CC)CC(=O)Nc1c(C)cccc1C
32. CCOc1ccc(N=c2ccc3ccccc3n2C)cc1

compound no.	25	26	27	28	29	30	31	32
MbtI inh	5	49	4	·	3	9	·	-85
Mtb MenB inh	-17	-58	-7	-41	-6	22	-9	6
Polio RdRp inh	107	101	97	110	100	101	103	104
Polio RdRp inh intensity	111	104	100	134	98	103	103	105

33. COc1ccc(OC)c(/C=N/N=C2\SCC(=O)N2Cc2ccco2)c1
34. CC1COC2=C(N3CCN(C)CC3)C(F)=CC3C(=O)C(C(=O)O)=CN1C23 (configuration not stated)
35. OCN(Cc1ccccc1)Cc1ccccc1
36. O=C(O)C(=Cc1nc(-c2ccccc2)n2ccccc12)C(=O)O
37. CS(=O)(=O)N(CC(=O)O)c1cccc2ccccc12
38. COc1ccc2cc1Oc1ccc(cc1)C[C@H]1c3cc(c(OC)cc3CCN1C)Oc1c(OC)c(OC)cc3c1[C@H](C2)N(C)CC3
39. O=S(=O)(/N=C1\C=C2N(CCO)CCOC2(O)c2ccccc21)c1ccccc1 (configuration not stated)
40. OC1CN=C2C=CC=CN2C1 (configuration not stated)

compound no.	33	34	35	36	37	38	39	40
MbtI inh	8	-102	-5	9	-38	-14&-9	-6	·
Mtb MenB inh	-20	2	·	-90	4	2&-1	-138	-4
Polio RdRp inh	100	98	104	100	101	103&100&101	91	103
Polio RdRp inh intensity	102	103	107	103	101	102&101&100	90	102

The last 2 entries of the section above come first, to join the parts:
39. O=S(=O)(/N=C1\C=C2N(CCO)CCOC2(O)c2ccccc21)c1ccccc1 (configuration not stated)
40. OC1CN=C2C=CC=CN2C1 (configuration not stated)
41. O=C(CSC1CCCCC1)NC1CCCC1
42. O=C1C=CC(=O)N1c1ccccc1
43. Cc1cc(-c2onc(C)c2C(=O)NC(=O)Nc2ccccc2)no1
44. CC(=O)OC12CC3C4CC(O1)C1C4CC3C12 (configuration not stated)
45. COC(=O)CCSCc1cn2cc(Cl)ccc2n1
46. Cc1ccc(C(=O)N2CCOCC2)cc1C
47. O=C(C1COc2ccccc2O1)N1CCN(c2ccccc2)CC1 (configuration not stated)
48. Cc1noc(C)c1COc1ncnc2ccccc12

compound no.	39	40	41	42	43	44	45	46	47	48
MbtI inh	-6	·	0	99*	-10	5	0	0	-3	5
Mtb MenB inh	-138	-4	·	-3	1	-5	·	-3	-3	-12
Polio RdRp inh	91	103	103	102	102	103	101	101	99	100
Polio RdRp inh intensity	90	102	96	103	109	103	103	106	100	101

49. CN1C/C(=C\c2ccc3c(c2)OCO3)C(=O)/C(=C/c2ccc3c(c2)OCO3)C1
50. COc1ccc(NC(=O)Nc2nnc(N(C)Cc3ccccc3)s2)cc1
51. O=C1CSc2ccc(C(=O)NCCSCc3ccco3)cc2N1
52. COc1ccc(CC(=O)Nc2ccccc2)cc1
53. Cc1occc1-c1nnc(SCC(=O)c2ccc(OC(F)F)cc2OC(F)F)n1C
54. CC(C)(C)c1ccc(NC(=O)NC2CCCc3ccccc32)cc1 (configuration not stated)
55. CCCCN1CN(CCCN2CCCCC2)Cn2c1nc1ccccc12
56. O=C1C2CCN(CC2)C1Cc1ccc(OCCOc2ccccc2)cc1 (configuration not stated)

compound no.	49	50	51	52	53	54	55	56
MbtI inh	·	2	17	-14	2	-1	-7	-7
Mtb MenB inh	-10	20	18	-76	-9	14	3	-22
Polio RdRp inh	120	102	101	101	105	106	100	108
Polio RdRp inh intensity	126	98	95	109	114	115	109	101

57. Cc1ccc(OCCOC(=O)c2nc3nccc(C)n3n2)cc1
58. NCCc1csc2c1CCCC2
59. COC(=O)CSc1nc(-c2ccccc2)cc(-c2ccccc2)c1C#N
60. COc1cccc(NC(=O)c2ccc(Cl)cc2)c1
61. O=c1oc2ccccc2cc1-c1nc(-c2cccs2)no1
62. CC(C)(SC(=S)N1CCCCCC1)C(=O)O
63. CCOC(=O)c1cc(-c2ccccc2)n(CC(=O)Nc2nc3ccc(Cl)cc3s2)c1C
64. CNC(=O)C1CCN(S(=O)(=O)c2c(C)noc2/C=C/N(C)C)CC1

compound no.	57	58	59	60	61	62	63	64
MbtI inh	12	-3	·	6	6	21	-5	3
Mtb MenB inh	-27	-22	-2	·	16	-52	-30	-9
Polio RdRp inh	106	103	105	102	100&102	100	100	103
Polio RdRp inh intensity	109	105	114	106	106&104	102	99	99

Exported as a markdown table: part of the list above
| No. | Compound | MbtI inh | Mtb MenB inh | Polio RdRp inh | Polio RdRp inh intensity |
| --- | --- | --- | --- | --- | --- |
| 60 | COc1cccc(NC(=O)c2ccc(Cl)cc2)c1 | 6 | · | 102 | 106 |
| 61 | O=c1oc2ccccc2cc1-c1nc(-c2cccs2)no1 | 6 | 16 | 100&102 | 106&104 |

The list goes on.
65. CCC(C)N(Cc1cn(CC)c2ccccc12)C(=O)Nc1ccc(Cl)c(Cl)c1 (configuration not stated)
66. CCN1C(=O)/C(=C2/C(=O)N3c4c(cc(OC(=O)c5cccs5)cc42)C(C)=CC3(C)C)SC1=S
67. CCCCn1c(N)c(C(=O)NCCC)c2nc3ccccc3nc21
68. CC1CN(C(=O)C(C)Nc2ccc(Oc3ccccc3)cc2)CC(C)O1 (configuration not stated)
69. O=C(COC(=O)c1cn(-c2ccccc2)nc1-c1cccs1)NC1CCS(=O)(=O)C1 (configuration not stated)
70. COC(CN(C)C(=O)c1ccc(CNS(=O)(=O)c2ccc(C)cc2)cc1)OC
71. Cc1cc(C(=O)Cn2cnc3sccc3c2=O)c(C)n1C1CC1
72. O=C1c2nccnc2C(=O)N1c1ccccc1

compound no.	65	66	67	68	69	70	71	72
MbtI inh	8	·	107	4	-54	5	16	·
Mtb MenB inh	-13	-5	-48	-13	-26	-15	-7	-24
Polio RdRp inh	105	101	·	100	104	99	103	107
Polio RdRp inh intensity	99	103	·	100	97	102	96	108

73. COC(=O)c1ccc2c(=O)nc3c(-c4ccccc4)n[nH]n3c2c1
74. CCOc1nc2ccccc2c(=O)n1CCO
75. Cc1ccc(Cn2nnc3c(=O)n(Cc4cc(C)ccc4C)cnc32)cc1
76. Cc1ccc(OCCCn2ccnc2)cc1
77. N#CSc1c(Cl)nc2sccn12
78. Cc1ccccc1-c1nnc(CC23CC4CC(CC(C4)C2)C3)o1
79. N#CCOC(=O)c1ccc(-n2cnnn2)cc1
80. O=C(O)CSCC(=O)N1CCN(S(=O)(=O)c2cc(Cl)cc(Cl)c2)CC1

compound no.	73	74	75	76	77	78	79	80
MbtI inh	9	·	22	-6	65*	1	3	3
Mtb MenB inh	3	-6	-21	-72	·	-13	-27	-14
Polio RdRp inh	100	96	100	106	85*	100	105	102
Polio RdRp inh intensity	104	101	102	101	82*	100	107	102

81. CC(C)CCSc1nc(-c2cccs2)ccc1C#N
82. CNC(=O)CSc1ncnc2sc3c(c12)CCCC3
83. CCc1ccc(N2C(=O)/C(=C/c3cccn3C(C)(C)C)C(=O)NC2=S)cc1
84. CN(C)CCNC(=O)C(c1ccccc1)c1ccccc1
85. O=C1N(c2ccccc2)NC(c2ccco2)C12CCCCC2 (configuration not stated)
86. COc1ccc(C(CNC(=O)c2ccc3c(c2)SC2=NS(=O)(=O)CCN23)N2CCOCC2)cc1 (configuration not stated)
87. Cc1ccc(Cn2c(C(=O)NCc3ccccc3)cc3sccc32)cc1

compound no.	81	82	83	84	85	86	87
MbtI inh	-331	1	21	-8	-7	3	1
Mtb MenB inh	-34	20	-116	-21	-11	-9	-28
Polio RdRp inh	97	100	104	104	103	112	105
Polio RdRp inh intensity	101	103	100	102	104	125	102

Quoted from above, entries 81 to 87
81. CC(C)CCSc1nc(-c2cccs2)ccc1C#N
82. CNC(=O)CSc1ncnc2sc3c(c12)CCCC3
83. CCc1ccc(N2C(=O)/C(=C/c3cccn3C(C)(C)C)C(=O)NC2=S)cc1
84. CN(C)CCNC(=O)C(c1ccccc1)c1ccccc1
85. O=C1N(c2ccccc2)NC(c2ccco2)C12CCCCC2 (configuration not stated)
86. COc1ccc(C(CNC(=O)c2ccc3c(c2)SC2=NS(=O)(=O)CCN23)N2CCOCC2)cc1 (configuration not stated)
87. Cc1ccc(Cn2c(C(=O)NCc3ccccc3)cc3sccc32)cc1

compound no.	81	82	83	84	85	86	87
MbtI inh	-331	1	21	-8	-7	3	1
Mtb MenB inh	-34	20	-116	-21	-11	-9	-28
Polio RdRp inh	97	100	104	104	103	112	105
Polio RdRp inh intensity	101	103	100	102	104	125	102
